Screens deposited in PubChem BioAssay by Southern Research Institute.
Mtb growth = Mycobacterium tuberculosis H37Rv growth inhibition, cell based, confirmatory dose response (AID 1949) | most inactive calls were filed without a number and no value below 0 was filed | inhibition, % at 10 µg/mL; hits with a dose series show IC50 in µg/mL | 100,000 tested, 1.6% active;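 active = confirmed in a dose series; inconclusive = about 50% or more but not retested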;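 note: bacteria grown 7 days with compound before Alamar blue readout; 0% = untreated bacteria and 100% = reference antibiotic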
Numbers without * were called inactive; i = inactive; u = inconclusive. A portion of the library; rates above refer to the full screens.

Compound | Mtb growth
CCOCCOC(=O)C1=C(C)NC2=C(C(=O)CCC2)C1c1ccc(F)c(F)c1 (stereo not drawn) | i
COc1ccccc1C(=O)Nc1nc(-c2cccs2)c(-c2ccccc2)s1 | 44.8%
Cc1ccc(NC(=O)c2ccc(OCC(=O)OC3CCCCC3)cc2)cc1 | 2.73µg/mL*
COc1ccccc1Nc1ccc2ccccc2c1 | u
O=C(N=Nc1c(O)[nH]c2ccc(Br)cc12)c1cccnc1 | 40.3%
CC(=O)N1CCN(c2nnc(-c3ccccc3)c3ccccc23)CC1 | 0.1%
O=C1CC(Cc2ccccc2)C(=O)N1c1nccs1 (stereo not drawn) | i
Cc1cc(Cl)ccc1NC(=O)COC(=O)c1ccccc1I | i
CC1=C(C(=O)Nc2ccccc2F)C(c2ccccc2Cl)NC(=S)N1 (stereo not drawn) | i
CCOC(=O)C1=C(C)N=c2s/c(=C\c3cc(Br)ccc3OC(C)=O)c(=O)n2C1c1cccs1 (stereo not drawn) | i
N#CCCN(C(=O)Nc1ccccc1)c1ccccc1 | i
Cc1ccc(-c2nnc(SCC(=O)NCc3cc(C(=O)c4ccccc4)ccc3O)n2C)cc1 | i
O=C(CSc1nnc(-c2sc3ccccc3c2Cl)o1)NCc1ccccc1 | i
Cc1nc2n(CC(=O)O)c3ccccc3n2n1 | i
CCOc1cc(CN2CCN(C(=O)c3cccs3)CC2)ccc1OC | i
O=C(CNC(=O)c1ccco1)Nc1cccc(C(F)(F)F)c1 | i
CCOC(=O)c1cc(Cc2ccccc2)sc1NC(=O)c1cccnc1 | 3.4%
c1ccc(CCNc2ncnc3nc[nH]c23)cc1 | 1.4%
CCOc1ccc(NC(=O)c2cccc(-c3cc4ccccc4oc3=O)c2)cc1 | i
CC(=O)Oc1ccc(NC(=O)CSc2ccc(Cl)cc2)cc1 | 2.1%
Cc1ccc(C(C)C)cc1OCCN1CCOCC1 | i
CCCCNC(=O)/C(=C\c1ccc(-c2cccc([N+](=O)[O-])c2)o1)NC(=O)c1ccccc1 | i
COc1ccc(NC(=S)N2CCC(Cc3ccccc3)CC2)cc1OC | i
CCOc1ccc(NC(=O)CC2C(=O)N(CC)C(=S)N2Cc2ccc(N3CCCC3=O)cc2)cc1 (stereo not drawn) | i
O=C(COc1ccccc1)NC1CCCCCC1 | 22.4%
NC(N)=NC(N)=Nc1ccccc1C(F)(F)F | i
O=C(OCc1ccc(Br)cc1)c1ccco1 | i
Cc1c(=O)n(OCc2ccccc2F)c2ccccc2[n+]1[O-] | i
CN1CCC(N(C)c2ncnc3ccc(Br)cc23)CC1 | i
COc1ccc(C)cc1NC(=O)CCN1CCN(Cc2ccccc2)CC1 | i
CCOc1cc(C(=O)Nc2ccc(CN3CCOCC3)cc2)cc(OCC)c1OCC | i
Cc1ccc(C(=O)NC(=S)Nc2ccc(C(C)C)cc2)c(C)c1 | i
CCC(CC)C(=O)Nc1ccc(C(=O)Nc2nccs2)cc1 | i
COC(=O)c1cc(C(=O)NC(C)(C)CC(C)(C)C)cc([N+](=O)[O-])c1 | 0.3%
CCCCNc1c([N+](=O)[O-])c(=O)n(C)c2ccccc12 | i
COc1ccc2c(c1)c(=O)oc1cc(OC/C=C/c3ccccc3)ccc12 | i
O=C(c1c(F)cccc1F)N1CCN(c2ncccn2)CC1 | i
COc1ccc(N2CCN(C(=O)c3ccccc3Br)CC2)cc1 | i
COc1ccccc1OCCCCNCCO | i
O=C(Nc1ccc2c(c1)OCCO2)c1ccco1 | i
NC(=O)c1c(NC(=O)CCCN2C(=O)c3ccccc3C2=O)sc2c1CCCC2 | i
COc1ccccc1C(=O)Nc1cc(C)cc(C)n1 | i
COc1ccc(OC)c(NC(=O)Cn2cnc3sc(C)c(-c4ccc(Cl)cc4)c3c2=O)c1 | i
COc1ccc(-n2c(SCC(=O)Nc3cccc(C)c3C)nnc2-c2ccccc2)cc1 | i
COc1ccc(S(=O)(=O)Nc2ccncc2)cc1 | i
C#CCOc1c(Br)cc(/C=C2\C(=O)NC(=O)N(c3ccc(C)cc3)C2=O)cc1OCC | i
S=C(Nc1cccnc1)NC(c1ccccc1)c1ccccc1 | 24.1%
Clc1cc2ncc(-c3ccccc3)nc2cc1Cl | i
COCc1cc(C2SCC(=O)Nc3c2c(=O)[nH]n3C(C)C)ccc1OC (stereo not drawn) | i
COc1ccc(-c2cn3c4ccccc4n(CCN4CCCCC4)c3n2)cc1OC | i

(more compounds)
Compound | Mtb growth
O=C(CCC1COc2ccccc2O1)Nc1ccccc1Cl (stereo not drawn) | 4.7%
COCCSc1ccccc1C(=O)NCc1ccc(S(N)(=O)=O)cc1 | i
CCOc1ccc(C(=O)Nc2c(C)cccc2C)cc1[N+](=O)[O-] | i
CC(=O)Nc1ccc(OCC(O)Cn2ccnc2)cc1 (stereo not drawn) | i
COc1ccc(C(=O)c2cc(CC(=O)O)c(-c3ccc(OC)cc3)s2)cc1 | 12.4%
CCOC(=O)Cc1csc(NC(=S)NC(=O)c2ccccc2)n1 | 8.8%
CCOC(=O)Nc1ccc(NC(=O)c2cccc(Cl)c2)cc1 | i
O=C(NC1CCCCCCC1)c1cnccn1 | 1.6%
CCC(C)c1ccccc1OCC(=O)Nc1ccc(C)c(Cl)c1 (stereo not drawn) | 17.2%
CN(C1=NC(=O)C(CC(=O)Nc2ccc(Br)cc2)S1)c1ccc(O)cc1 (stereo not drawn) | 1.9%
CCCC(C)C(=O)Nc1c(CC)cccc1CC (stereo not drawn) | i
COC(=O)CNc1nc(OC)nc(N(C)C)n1 | i
O=S(=O)(c1cccc2cccnc12)N1CCCCCC1 | i
COc1ccc2c(c1)c(CCN1C(=O)c3ccccc3C1=O)cn2C(=O)c1ccco1 | 0.1%
CCC(=O)Nc1ccc(C(=O)N2CC(C)OC(C)C2)cc1 (stereo not drawn) | 1.4%
C=CCNC(=S)N(Cc1ccc(OC)c(OC)c1)C1CCS(=O)(=O)C1 (stereo not drawn) | i
CCn1nccc1C(=O)Nc1ccccc1OC | i
Cc1nnc(NC(=O)C2CC(=O)N(c3ccc4c5c(cccc35)CC4)C2)s1 (stereo not drawn) | i
COC(=O)c1ccc(NC(=O)CN(CCc2ccccc2)S(=O)(=O)c2ccc(Cl)cc2)cc1 | i
COc1cc(-c2nc(=S)[nH][nH]2)cc(OC)c1OC | 0.7%
CC(C)(C)NC(=O)COc1ccc(S(=O)(=O)NC(C)(C)C)cc1 | i
CCN(C(=O)c1ccc(F)cc1)c1ccccc1 | i
CCC(CC)C(=O)Nc1ccc(-c2ccc(NC(=O)C(CC)CC)c(C)c2)cc1C | i
COC(=O)c1ccccc1OCCOCCOc1cccc2cccnc12 | 3.1%
O=C(CCCCC(=O)NCc1ccc(Cl)cc1)NCc1ccc(Cl)cc1 | 9.0%
CCOC(=O)c1ccc(NC(=S)NC(NC(=O)c2ccccc2Br)C(Cl)(Cl)Cl)cc1 (stereo not drawn) | i
OCCNCCCOc1ccc(Cl)cc1 | i
Cc1nc2cc(S(=O)(=O)C(F)(F)F)ccc2s1 | 6.5%
CCOC(=O)C1=C(C)NC(=S)NC1c1cccc(F)c1 (stereo not drawn) | i
Cc1ccc(CC(=O)O/N=C(\N)c2ccccn2)cc1 | i
COc1ccc(S(=O)(=O)Nc2ccccc2C(=O)N2CCCC2)cc1I | 1.2%
Cn1c(=O)c2c(nc(SCc3ccccc3Cl)n2Cc2ccccc2Cl)n(C)c1=O | i
O=C(COc1ccc(Br)cc1)NC(=S)Nc1cccc([N+](=O)[O-])c1 | i
C=CCOc1nc(CC)nc2c1sc1nc3c(cc12)COC(C)(C)C3 | i
CCOC(=O)c1cc(C)sc1NC(=O)c1cccc(Cl)c1 | 1.8%
O=C(Nc1sc2c(c1C(=O)NCc1ccccc1)CCCC2)c1ccccc1Cl | 2.3%
Nc1nc(-c2ccccc2)nn1S(=O)(=O)c1ccccc1 | i
CC(Oc1ccccc1)C(=O)Nc1ccc(Cl)cc1F (stereo not drawn) | i
Cc1ccc(NC(=O)COc2ccccc2C=O)cc1Cl | i
CCc1cccc(CC)c1NC(=O)CN(c1cccc(Br)c1)S(C)(=O)=O | 2.8%
CC(C)(C)c1ccc(/C=C2\NC(=S)NC2=O)cc1 | 7.9%
COc1ccc(CNC(=O)C2CCN(S(=O)(=O)c3ccc(Br)cc3)CC2)cc1 | i
CCCn1c(Cc2ccccc2)nnc1SCC(=O)Nc1cccc(OC)c1 | i
COC(=O)c1c(N)sc(C(=O)N2CCOCC2)c1C | i
O=[N+]([O-])c1ccc2oc3c(c2c1)CCCC3 | i
C=CCOc1ccc(C2NC(=S)NC(C)=C2C(=O)NCc2ccccc2)cc1OC (stereo not drawn) | i
CC(C)C(=O)Nc1cccc(NC(=S)NC(=O)c2cccc3c(Br)cccc23)c1 | i
CCOC(=O)N1CCC2(CC1)C(C#N)=C(N)Oc1c2sc2nc(C)cc(C)c12 | 0.3%
COCc1nnc(NC(=O)c2cc(OC)c(OC)c(OC)c2)s1 | 1.3%
COc1ccccc1-c1c(C)nn2c(-c3ccccc3)cc(C)nc12 | 9.1%

Other structures follow.
Compound | Mtb growth
COc1ccccc1Nc1nc(N)nc(CN2CCN(C)CC2)n1 | i
CSc1ccccc1C(=O)Nc1ccccc1-c1ccccc1 | 5.0%
Cc1oc2nc(SCC(=O)NC3CCCCC3)nc(N)c2c1C | i
Cc1ccccc1CN1CCN(Cc2cccc([N+](=O)[O-])c2)CC1 | 3.4%
Cc1ccccc1NC(=O)c1ccc(C)c(S(=O)(=O)Nc2cc([N+](=O)[O-])ccc2C)c1 | i
COC(=O)C1C2C=CC3(CN(C(C)c4ccncc4)C(=O)C13)O2 (stereo not drawn) | i
Cc1ccc(-c2nnc(Nc3ccc(C(N)=O)cc3)c3ccccc23)cc1S(N)(=O)=O | i
COCCNC(=O)C(=O)Nc1cccc(Cl)c1Cl | i
COc1ccc(OC(=O)COc2c(C)ccc(C)c2C)cc1 | 0.0%
Cc1ccc(NC(=O)c2ccc(OC(=O)CCN3C(=O)c4ccccc4C3=O)cc2)cc1 | i
CSc1ccccc1NC(=O)c1csc(C)c1 | i
CCC(=O)Nc1ccc(Cl)c(NC(=O)COc2ccccc2C)c1 | i
CCN1CCN(C(=O)CN(c2cc(OC)ccc2OC)S(=O)(=O)c2ccc(OC)c(OC)c2)CC1 | i
CCc1cc(OCCSc2ncccn2)ccc1Cl | i
Cc1ccc(-c2nc(N)n(C(=O)Cc3ccccc3)n2)cc1 | i
O=C(CC1CCCCC1)NCc1ccccc1 | i
COc1ccc(OC)c(NC(=O)CN(c2ccccc2F)S(=O)(=O)c2ccc(C)cc2)c1 | i
CCN1CCN(CC(O)COc2ccc(OC)cc2)CC1 (stereo not drawn) | i
COC(=O)COc1ccc(S(=O)(=O)NCCc2ccc(OC)c(OC)c2)cc1 | i
Cn1c(CN2CC(c3ccccc3)CC2=O)n[nH]c1=S (stereo not drawn) | i
CC1=C(C(=O)OCCOC(C)C)C2(O)C(=O)c3ccccc3C2(O)N1 (stereo not drawn) | i
CCOC(=O)c1ccc(COC(=O)c2ccc(C=O)cc2)cc1 | 2.2%
CCOc1ccccc1NC(=O)c1cc(OC)c(OC)cc1OC | 0.8%
S=C(NCCCn1ccnc1)NC1CCCCC1 | i
COc1ccc(NC(=O)CN(Cc2ccc(F)cc2)S(=O)(=O)c2ccccc2)c(OC)c1 | i

Looked up one by one from the entries so far:
Compound | Mtb growth
Cc1ccc(-c2nnc(Nc3ccc(C(N)=O)cc3)c3ccccc23)cc1S(N)(=O)=O | i
S=C(NCCCn1ccnc1)NC1CCCCC1 | i
CCOC(=O)c1ccc(COC(=O)c2ccc(C=O)cc2)cc1 | 2.2%
COc1ccc(OC(=O)COc2c(C)ccc(C)c2C)cc1 | 0.0%
CC1=C(C(=O)OCCOC(C)C)C2(O)C(=O)c3ccccc3C2(O)N1 (stereo not drawn) | i

Another view of some results above:
CCOC(=O)c1ccc(COC(=O)c2ccc(C=O)cc2)cc1
  Mtb growth: 2.2%
CCOc1ccccc1NC(=O)c1cc(OC)c(OC)cc1OC
  Mtb growth: 0.8%
S=C(NCCCn1ccnc1)NC1CCCCC1
  Mtb growth: i
COc1ccc(NC(=O)CN(Cc2ccc(F)cc2)S(=O)(=O)c2ccccc2)c(OC)c1
  Mtb growth: i

Further results:
Compound | Mtb growth
CC(=O)c1ccc(OC(=O)C(Cc2ccccc2)N2C(=O)C3C4C=CC(C5CC45)C3C2=O)cc1 (stereo not drawn) | i
COCc1cc(C)nc(SCC(=O)Nc2ccccc2N2CCOCC2)c1C#N | i
COc1ccc(-c2csc(NC(=S)NC(=O)c3cccc(Cl)c3)n2)cc1OC | 3.9%
O=C(C1=C(O)C(=O)N(CCN2CCOCC2)C1c1cccc(Br)c1)c1cccs1 (stereo not drawn) | i
CCOc1ccc(OCc2ccc(C(=O)Nc3ccc(Cl)cn3)o2)cc1 | 19.9µg/mL*
Cc1cc(C)c(C)c(OCCCN2CCOCC2)c1 | i
O=C(OCc1ccc([N+](=O)[O-])cc1)c1cc(-c2ccccc2)nc2ccccc12 | i
COCCNc1oc(-c2ccc(OC)cc2)nc1C#N | i
COc1ccc(CCNC(=S)NNC(=O)c2ccoc2C)cc1OC | i
CCn1c(CNC(=O)Cc2ccc(OC)cc2)nnc1SCC(=O)Nc1cccc(Cl)c1Cl | i
CCCNC(=O)c1ccccc1NS(=O)(=O)c1ccc(OC)c(Cl)c1Cl | i
COc1cc(SC)ccc1C(=O)Nc1cc(Cl)ccc1C | i
COc1ccc(OC)c(C2C(C#N)=C(C)NC3=C2C(=O)CCC3)c1 (stereo not drawn) | 1.2%
COc1cc(NC(=O)Cc2ccccc2)c(C(=O)O)cc1OC | i
